Source: PubChem BioAssay (several laboratories)
RanGTP-Imp inh: inhibitors of RanGTP-importin-beta interaction, primary screen, biochemical, FRET, CFP-Ran, YFP-importin-beta, homogeneous; Ran GTPase (GTP-bound) - importin-beta complex; cell-free CFP-Ran/YFP-importin-beta FRET ratio; inhibition, % (no concentration beside the values); 300,000 tested, 1.1% active;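 active means most replicates above 15%; inconclusive means exactly half above 15%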;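 further: 0% = DMSO wells and 100% = Ran loaded with GDP instead of GTP; wells of about 40 µL received 100 nL stock; the first replicate is given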
B2AR ag: beta2AR agonists driving receptor internalization, primary screen, cell-based, FAP fluorogen, flow cytometry. AID 504454, 2011. response, % (concentration not given with the values). 340,000 tested, 0.43% active. Am2.2-beta2AR cells; reference of the scale not given here;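 active means response above a set limit, near 3 SD of response in nonfluorescent compounds, cut at about 42% in these data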;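 further: stock transfer was 100 nL into about 11 µL; a reference agonist was the positive control; negative values mostly stem from fluorescent compounds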
Vif A3G: inhibitors of Vif binding to APOBEC3G peptide, primary screen, biochemical, TR-FRET, GST-Vif 1-94, biotin-A3G peptide, dose response retest (AID 1117319). 260,000 tested, 0.57% active. Virion infectivity factor (Human immunodeficiency virus type 1 group M subtype B (isolate …. TR-FRET GST-Vif / biotin-A3G peptide binding; higher % means a stronger effect; test concentration not given here; strong numbers were not always called active. one-dose inhibition, %; IC50 in µM for titrated hits;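 active means above the screen mean plus three standard deviations and confirmed in dose response; inconclusive means results disagree or hit not tested in dose response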;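 further: Vif residues 1-94 fused to GST binding biotinylated APOBEC3G peptide 110-148; 0% = full assay without inhibitor and 100% = GST in place of GST-Vif; retest series ran down from 100 µM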
Calb FLC: C. albicans growth inhibition with fluconazole, primary screen, CaCi-2 strain, Alamar Blue fluorescence; growth inhibition, % (concentration not given with the values); C. albicans CaCi-2 (fluconazole-resistant clinical isolate) + fluconazole, 48 h; AID 1979, 2009; 300,000 tested, 0.57% active;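 active means most replicates above 75%; inconclusive means exactly half above 75%; inactive means most below 75%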;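 further: all wells also contain fluconazole at 8 µg/ml as a sub-toxic cotreatment; 0% = median of DMSO wells and 100% = median of geldanamycin control wells; wells of about 8 µL received 7.5 nL stock; the first replicate is given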
LANA-H2A inh: blockers of LANA interaction with H2A/H2B – biochemical, FP readout, HTS, primary screen; inhibition, % (no concentration beside the values); 320,000 tested, 0.6% active; cell-free LANA-H2A/H2B peptide, fluorescence polarization; Protein LANA1 (Human herpesvirus 8 type P (isolate GK18)), Q9QR71; AID 2629, 2010; in the data active means inhibition mostly above about 10%, no sharp cut-off; inactive means mostly below about 6.7%;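 further: stock transfer was 7.5 nL into about 10 µL; 0% = median of vehicle wells and 100% = median of positive control wells; one replicate is shown; the record names a cut of 25% in any replicate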
Target sequence (Q9QR71 whole entry, looked up): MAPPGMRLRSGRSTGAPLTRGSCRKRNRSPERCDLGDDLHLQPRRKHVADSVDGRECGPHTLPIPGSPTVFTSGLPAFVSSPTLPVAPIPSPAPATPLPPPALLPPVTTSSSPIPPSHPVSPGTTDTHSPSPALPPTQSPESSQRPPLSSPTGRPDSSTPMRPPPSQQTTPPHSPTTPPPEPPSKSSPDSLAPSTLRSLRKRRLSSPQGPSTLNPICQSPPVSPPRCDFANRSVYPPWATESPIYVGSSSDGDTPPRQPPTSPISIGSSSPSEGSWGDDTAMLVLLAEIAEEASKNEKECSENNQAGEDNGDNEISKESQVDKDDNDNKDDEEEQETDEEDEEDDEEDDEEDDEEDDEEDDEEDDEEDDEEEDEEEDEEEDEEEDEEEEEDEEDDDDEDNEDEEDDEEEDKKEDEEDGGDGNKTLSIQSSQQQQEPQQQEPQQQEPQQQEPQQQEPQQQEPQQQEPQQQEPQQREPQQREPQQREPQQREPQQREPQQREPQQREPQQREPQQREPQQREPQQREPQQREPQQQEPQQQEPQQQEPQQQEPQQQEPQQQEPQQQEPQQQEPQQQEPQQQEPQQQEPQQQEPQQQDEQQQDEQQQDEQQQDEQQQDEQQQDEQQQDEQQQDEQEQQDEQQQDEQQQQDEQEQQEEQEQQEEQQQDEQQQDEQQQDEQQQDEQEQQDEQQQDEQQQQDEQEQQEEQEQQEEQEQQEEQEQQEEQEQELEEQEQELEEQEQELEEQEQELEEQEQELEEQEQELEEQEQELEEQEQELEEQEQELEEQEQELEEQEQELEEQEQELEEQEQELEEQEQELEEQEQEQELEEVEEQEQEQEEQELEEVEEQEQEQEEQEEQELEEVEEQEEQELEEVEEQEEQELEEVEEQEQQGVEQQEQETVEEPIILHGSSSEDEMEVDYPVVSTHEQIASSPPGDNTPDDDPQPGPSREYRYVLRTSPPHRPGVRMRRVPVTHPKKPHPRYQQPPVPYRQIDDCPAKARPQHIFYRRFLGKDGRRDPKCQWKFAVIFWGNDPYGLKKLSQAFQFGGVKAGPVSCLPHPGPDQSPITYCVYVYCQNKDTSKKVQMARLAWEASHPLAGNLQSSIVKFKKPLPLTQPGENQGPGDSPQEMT
HNF4A DNA FP: change in binding of human HNF4A to DNA, primary screen, biochemical, fluorescence polarization, FITC-DNA | AID 1224865, 2016 | activity change, % at 10 µM | Hepatocyte nuclear factor 4-alpha (Homo sapiens), P41235 | 360,000 tested, 0.3% active | 1 h; in the data active means activity change above about 30%, passing the limit was not always enough;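 further: controls were the assay level and a saturating level of protein; the project sought stronger binding though the title names inhibitors; some compounds called inactive have numbers as strong as hits; positive values seem to mean higher polarization but the record does not say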
ALR H2O2 inh: inhibitors of human ALR sulfhydryl oxidase, primary screen, biochemical, H2O2 detection, HRP-luminol luminescence, single point; AID 485317, 2010; inhibition, % (concentration not given with the values); 290,000 tested, 3.8% active; purified ALR, DTT oxidation; FAD-linked sulfhydryl oxidase ALR (Homo sapiens), P55789;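 active means mean and each replicate at 75% or more; inconclusive means only one of the two met; inactive means neither met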;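 further: stock transfer was 7.5 nL into about 7.5 µL; 0% = neutral wells and 100% = wells with inactivated enzyme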
* marks the source's active call; other numbers are inactive results; ? = inconclusive; . = not tested or not shown.

SMILES | RanGTP-Imp inh | B2AR ag | Vif A3G | Calb FLC | LANA-H2A inh | HNF4A DNA FP | ALR H2O2 inh
Cc1cccc(CS(=O)(=O)Cc2ccc(C(=O)NCc3cccs3)o2)c1 | -1.1 | 2 | 5% | 13 | 0.5 | -1.5 | .
OCC1OC(n2cnc3c(NCCc4ccccc4)ncnc32)C(O)C1O (stereo not given) | -3.6 | -23 | . | -12 | -0.4 | -0.9 | -9
O=C1CC(c2ccccc2)Cc2nc(N3CCc4ccccc43)ncc21 (stereo not given) | 7.6 | 5 | . | 6 | 8.1 | 5.1 | -6
CN1C(=O)/C(=C/c2ccc(C(=O)Nc3ccc(O)cc3C(=O)O)cc2)SC1=S | -4.3 | -4 | . | 0 | -2.6 | -4.5 | 97*
COCCn1c(-c2ccc(F)cc2)nc2cccnc21 | 0.4 | 10 | -3% | -3 | -0.1 | 2.7 | -9
S=C(NCC1CCCO1)Nc1cc(Cl)c(Cl)cc1Cl (stereo not given) | 4.6 | 0 | 6% | -4 | -4.7 | 2.9 | -20
CCC(=O)Nc1cccc(NC(=O)c2cccc([N+](=O)[O-])c2)c1 | ? | -17 | 1% | 11 | -1.6 | -0.8 | -1
CCCCOC(=O)C1C2C=C[C@]3(CN(C(C)c4ccc(OC)cc4)C(=O)[C@H]13)O2 (stereo not given in full) | -2.1 | -12 | -6% | 6 | 0.5 | -1.6 | -1
COc1ccc(NC(=O)CN(Cc2ccccc2)S(C)(=O)=O)c(OC)c1 | 3.3 | 15 | -2% | -9 | -1.7 | 1.7 | -9
COc1ccc(CNCCc2ccc([N+](=O)[O-])cc2)c(OC)c1OC | 2.4 | 1 | . | -2 | -8.0 | 2.2 | -1
CN(CC(=O)NCc1ccccc1)CC(=O)Nc1ccc(Cl)c(C(F)(F)F)c1 | . | 10 | 9% | . | -1.6 | -0.4 | -3
Cc1ccc(F)cc1NC(=O)c1cccc(N(C)C)c1 | -2.8 | -9 | 4% | -2 | 0.3 | -2.0 | 14
CCc1ccc(NC(=O)N(CCN(C)C)C(C)c2cccnc2)cc1 (stereo not given) | 4.1 | 0 | 6% | 11 | -2.7 | 2.5 | -8
CCCCSc1nnc(C)c(=O)[nH]1 | 0.6 | 4 | -2% | 15 | 0.6 | 0.2 | -1
[N-]=[N+]=NC1CC(CO)OC1n1ccc(=O)[nH]c1=O (stereo not given) | -0.9 | -3 | . | 0 | 1.1 | -1.3 | -16
CCOc1ccc(CCNC(=O)CSc2n[nH]c(N)n2)cc1OCC | -0.9 | -2 | . | 1 | 3.7 | -3.8 | 10
CCOC(=O)c1sc2nc(CSc3ccccc3)[nH]c(=O)c2c1C | -0.1 | -2 | -4% | 21 | -3.1 | 6.6 | .
Cc1nc2c(c3c1[nH]c1ccccc13)C(O)CC(C)(C)C2 (stereo not given) | 3.3 | -3 | . | 6 | 9.3 | 3.6 | 2
NC1(C(=O)O)CC1 | -0.6 | -4 | . | . | -2.7 | 0.9 | 10
COc1ccc2c(c1OC)C(=O)OC2Nc1ncccc1C (stereo not given) | 1.7 | 1 | -3% | 42 | 1.0 | 0.3 | -5
CC(OC(=O)c1ccccc1NCCO)C(=O)NCC(=O)Nc1ccc(F)c(F)c1F (stereo not given) | -2.1 | 1 | 6% | -9 | 3.3 | -0.8 | -1
Cc1nnc(SCC(=O)N/N=C/c2cn(-c3ccccc3)nc2-c2ccc(F)cc2)n1-c1ccccc1 | 2.8 | 54* | 16% | -12 | 4.4 | 2.9 | -4
O=C(/C=C/c1c(Cl)nc2ccccn12)N1CCCCC1 | 2.9 | -12 | ? | 2 | -4.2 | 0.5 | -1
NS(=O)(=O)c1ccc(NC(=S)N2CCC(O)CC2)cc1 | 0.6 | 9 | -6% | 3 | 1.7 | 2.5 | -1
O=C(CN1C(=O)c2cccc3cccc1c23)Nc1cccnc1 | 6.5 | -21 | 11% | -4 | -7.1 | -2.2 | -15
SMILES | RanGTP-Imp inh | B2AR ag | Vif A3G | Calb FLC | LANA-H2A inh | HNF4A DNA FP | ALR H2O2 inh
CCOC(=O)c1c(C)n(C)c2ccc(OC)c(NC(=O)CN3CCN(Cc4ccccc4)CC3)c12 | -2.2 | 0 | -1% | -17 | 2.4 | -1.8 | -16
COc1ccccc1NC(=O)N1CCC(c2nc3cc(C)c(C)cc3[nH]2)CC1 | ? | 11 | 2% | -3 | 3.9 | -3.1 | 1
O=S(=O)(NCc1ccccc1)[C@@H]1CC2C=CC1C2 (stereo not given in full) | . | -2 | . | . | -1.6 | 3.3 | 1
CC(=O)C1=C(NC(=O)c2ccccc2F)C[C@@H]2[C@H]1C2(C)C | 0.4 | -8 | 2% | 8 | 2.8 | -1.8 | 22
CCc1cc(=O)oc2c3c(cc(OCC(=O)Nc4cccnc4)c12)OC(C)(C)CC3 | -1.5 | -8 | . | -3 | 10.0 | 5.4 | -38
CCCc1nnc(SCC(=O)N2CCCCC2C)n1CCOC (stereo not given) | -2.2 | -2 | . | -3 | 4.7 | 1.4 | 2
CCS(=O)(=O)c1ccc(-c2csc(-c3ccccc3)n2)c(Cl)c1Cl | 0.3 | 5 | -3% | -9 | 2.0 | 2.4 | 1
C/C(=N/NC(=O)c1ccc2c(c1)OCO2)c1cccc([N+](=O)[O-])c1 | -0.5 | -13 | . | -7 | 8.9 | -2.2 | -5
NC(=O)c1cnn(Cc2ccc(Cl)cc2)c1N | -2.6 | -2 | 8% | 14 | 0.1 | 4.0 | -9
COc1ccc(C(=O)N2CCN(c3ncccn3)CC2)cc1[N+](=O)[O-] | ? | -2 | 6% | 21 | 0.1 | -2.2 | 0
NC(=O)[C@@H]1[C@@H]2C(=O)N(c3ccc(F)cc3)C(=O)[C@@H]2[C@H]2C=Cc3ccccc3N21 | -0.5 | 7 | 22% | 2 | -14 | 12 | -10
O=C(NCC(c1cccnc1)N1CCOCC1)c1cccs1 (stereo not given) | -2.8 | 1 | -4% | 17 | -5.4 | -0.2 | .
O=C(NC(=S)Nc1nc(-c2cccc([N+](=O)[O-])c2)cs1)c1ccccc1Cl | ? | 4 | -2% | -3 | 3.4 | -0.7 | -23
COc1ccc(/C=N/NC(=O)c2nc(-c3ccccc3)cc(-c3ccccc3)n2)cc1OC | 0.9 | 10 | 6% | 7 | -3.2 | 2.1 | -6
Cc1ccc(-c2c(C)n([O-])c3c([n+]2=O)CCCCC3)o1 | 1.0 | 0 | 2% | 2 | 0.5 | 0.4 | .
C=CCOc1ccnc(-c2ccccc2)n1 | -3.7 | 0 | -6% | -9 | 2.1 | -1.2 | -6
Cc1ccccc1NC(=O)c1sc(NC(=O)COc2ccccc2)c(C#N)c1C | ? | -33 | -40% | -4 | 4.1 | -0.4 | -18
COc1cc(CN2CCN(Cc3c[nH]c4ccccc34)CC2CCO)cc(OC)c1 (stereo not given) | 21* | 5 | . | 5 | -2.9 | -1.8 | -14
CC(=O)OC[C@H]1O[C@@H](O/N=C/[C@@H](C)[C@H](OCc2ccccc2)C(C)C)[C@H](OC(C)=O)[C@@H](OC(C)=O)[C@@H]1OC(C)=O | 2.3 | . | ? | -6 | 6.4 | . | 3
O=C(CNC(=O)C(c1ccccc1)c1ccccc1)N/N=C/c1ccc(O)c([N+](=O)[O-])c1 | 2.4 | 2 | 19% | 24 | -3.1 | -3.5 | 1
CCOC(=O)C(=O)NNc1cccc(C)c1C | 2.6 | 12 | . | -1 | -0.7 | -0.4 | 98*
O=c1c2c(-c3cccs3)csc2ncn1/N=C/c1ccccn1 | -3.4 | -6 | . | 11 | 2.3 | 0.5 | -2
O=C(Cn1cnc2c(oc3ccccc32)c1=O)N1CCN(c2ccccc2)CC1 | 0.9 | 1 | -4% | 7 | -1.6 | 2.6 | -13
COc1ccc(C(=O)OCC(=O)Nc2ccc3[nH]c(=O)[nH]c3c2)c(OC)c1OC | -1.1 | 0 | 2% | -6 | 0.8 | 1.3 | -12
O=C(NC1CCC(O)CC1)c1cccc2cccnc12 (stereo not given) | -3.1 | -3 | . | 2 | -1.8 | 2.4 | .
SMILES | RanGTP-Imp inh | B2AR ag | Vif A3G | Calb FLC | LANA-H2A inh | HNF4A DNA FP | ALR H2O2 inh
CCOC(=O)COc1ccc(/C=C2/SC(=Nc3ccccc3)N(Cc3cccnc3)C2=O)cc1OC | -4.2 | 15 | 19% | 6 | -0.2 | 0.6 | -3
COC(=O)c1nc(NC(C)=O)n[nH]1 | 1.9 | . | -3% | -2 | -3.6 | . | 1
COc1ccc(C(=O)O/N=C2\CCS(=O)(=O)c3sccc32)cc1 | 2.1 | 11 | 0% | -30 | -3.2 | 0.8 | -2
CCN(CC(=O)Nc1ccccc1OC)C(=O)CN1C(=O)NC(C)(c2ccc(C)cc2)C1=O (stereo not given) | . | 0 | 1% | . | -1.5 | -0.9 | -6
COC(=O)c1ccccc1NC(=O)c1noc2c1CCCC2 | 5.6 | -2 | 3% | -18 | -0.6 | -3.7 | 4
CCOC(=O)c1nn(-c2ccccc2F)c2nc(Nc3ccccc3)cc(=O)n12 | 1.1 | 9 | 7% | 0 | 3.9 | 7.1 | -6
O=C(Cc1ccc([N+](=O)[O-])cc1)NCCc1ccc2c(c1)OCO2 | . | -30 | -3% | . | . | -3.8 | .
Cc1cc(O)cc(O)c1C(=O)Cc1ccccc1 | -2.4 | 8 | 31% | 8 | 4.9 | -1.9 | 33
COc1ccc(N=c2scc(C)n2CCCN2CCCC2=O)cc1 | -0.9 | -6 | 1% | 40 | -1.5 | -5.8 | 100*
Cc1ccc2c(c1)nnn2C1CCN(CC(=O)Nc2ccc3c(c2)OCCO3)CC1 | -3.5 | -1 | -5% | -3 | -2.1 | -2.9 | -10
CC1CN(S(=O)(=O)c2cccc(C(=O)NCc3ccc4c(c3)OCO4)c2)CC(C)O1 (stereo not given) | 3.0 | 10 | 3% | 3 | 0.4 | 0.1 | -9
Cc1nn(C)c(C)c1CN(C)S(=O)(=O)c1ccc2ccccc2c1 | . | -14 | ? | . | 3.1 | -3.8 | -24
c1ccc(-c2nc3cccnc3nc2-c2ccccc2)cc1 | 0.1 | -17 | . | 1 | 3.5 | 1.9 | 9
O=C(O)CSc1cc(C(F)(F)F)nc(-c2ccccn2)n1 | 5.9 | 0 | ? | -6 | 1.5 | 1.0 | 4
CCOC(=O)c1sc2nc(N3CCOCC3)c3c(c2c1N)CCN(Cc1ccccc1)C3 | -1.2 | 13 | 0% | 4 | -1.1 | -0.5 | -9
CN(C)c1nc(Cl)nc2c1nc(Cl)n2C1CCCCO1 (stereo not given) | . | -4 | -1% | . | . | -1.2 | .
Cc1ccc(Nc2nc(-c3ccc(O)cc3O)cs2)nc1 | 1.1 | 9 | . | 4 | -3.7 | 4.3 | 99*
Nc1nc(Nc2ccc(Cl)cc2)nc2ccccc12 | . | -5 | 14% | 67 | -1.5 | 1.5 | 65
CC12C(=O)N(c3cccc(OC(=O)c4ccco4)c3)C(=O)C1C1c3ccccc3C2c2ccccc21 (stereo not given) | 5.0 | 6 | 3% | ? | 0.5 | 1.3 | -3
CCSc1nc(N2CCOCC2)c2c(c1C#N)CCCC2 | 0.3 | 12 | -4% | -3 | 1.4 | 3.2 | -5
